Screening data (PubChem BioAssay)
Rce1 inh: yeast Rce1p protease inhibitors, primary screen, biochemical, fluorescence, cell-free homogeneous. CAAX prenyl protease 2 (Saccharomyces cerevisiae (strain ATCC 204508 / S288c)), Q03530. yeast membranes, quenched prenylated peptide cleavage fluorescence. calls only. 290,000 compounds, 0.27% hits. AID 2563, 2010;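 active = fall in fluorescence gain of 50% or more versus controls, with final raw signal at or below 3038400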;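 note: plate controls were neutral control wells for no effect and wells lacking membranes for full effect; tested at 10 µM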
Target sequence (Q03530 whole entry, looked up): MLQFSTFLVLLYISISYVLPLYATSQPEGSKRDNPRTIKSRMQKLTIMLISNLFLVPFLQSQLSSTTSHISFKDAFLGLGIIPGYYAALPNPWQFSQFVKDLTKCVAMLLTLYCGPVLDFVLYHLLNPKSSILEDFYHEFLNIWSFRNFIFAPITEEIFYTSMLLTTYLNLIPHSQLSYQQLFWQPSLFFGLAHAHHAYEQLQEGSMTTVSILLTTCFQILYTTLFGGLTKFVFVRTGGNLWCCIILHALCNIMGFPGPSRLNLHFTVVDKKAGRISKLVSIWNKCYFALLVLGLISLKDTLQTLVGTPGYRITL
Env fusion inh: inhibitors of HIV-1 Env-driven cell-cell fusion, primary screen, HeLa-JRFL effector, CEM21 target cells, luciferase; 360,000 compounds, 1.1% hits; AID 651610, 2012; inhibition, % at 12.3 µM;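 active = mean replicate inhibition score of at least 50 and every replicate individually at or above 50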;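 note: 0% = plate neutral controls and 100% = maraviroc near 300 nM; one replicate is shown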
eIF4H inh: human eIF4H binding inhibitors, primary screen, translation initiation inhibitor project, biochemical, uHTS, fluorescence polarization. Eukaryotic translation initiation factor 4H (Homo sapiens), Q15056. eIF4H fluorescence polarization binding assay. inhibition, % at 35 µM. 290,000 compounds, 0.94% hits. AID 2012, 2009;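 active = 50% or more with normal probe brightness, or confirmed in later tests; about a fifth of its hits are not listed in these tables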;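 note: calls also rest on retests at 20 µM and on dose response follow-up; 0% = protein and probe with vehicle and 100% = probe without protein; strong numbers were not always called active; many hits fall short of the cut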
PABP FP inh: PABP poly(A) RNA binding inhibitors, primary screen, biochemical, fluorescence polarization, uHTS | 290,000 compounds, 1% hits | AID 2014, 2009 | inhibition, % at 35 µM;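 active = 50% or more with normal probe brightness, or confirmed in later tests; about a fifth of its hits are not listed in these tables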;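 note: calls also rest on retests at 20 µM and on dose response follow-up; controls were probe without protein and protein plus probe with vehicle; some compounds called inactive have numbers as strong as hits; many hits fall short of the cut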
Yeast UUG start: modulators of yeast start codon fidelity, primary screen, whole organism, S. cerevisiae, single point, plate reader. S. cerevisiae UUG-firefly luciferase reporter, luminescence/redox ratio. activity score, % at 18.7 µM. 350,000 compounds, 0.13% hits. AID 602363, 2012;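 active = replicate mean at a twofold rise or more, about +100% in these data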;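 note: firefly luciferase made from a UUG start codon reports start codon fidelity; reporter light over untreated wells divided by growth signal over untreated wells; some hits fall short of that in this replicate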
CSC inhib: cancer stem cell viability inhibitors, primary screen, luminescence; cancer stem cell-like cells viability; inhibition, % at 7.5 µM; 300,000 compounds, 1.1% hits; AID 2717, 2010;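 active = mean at 75% or more and at least half the replicates too; tested in HMLE shEcad cells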;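 note: 0% = median of negative and 100% = median of positive control wells; the first replicate is given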
MT1-MMP act inh: blockers of MT1-MMP proenzyme processing, primary screen, HT1080 RFP-PRO-GFP cells, GFP/RFP fluorescence; Matrix metalloproteinase-14 (Homo sapiens), P50281; GFP/RFP ratio fluorescence, overnight; percent of plate control window, DMSO zero; GFP/RFP ratio change, % at 20 µM; 360,000 compounds, 0.061% hits; AID 651647, 2012;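 active = GFP/RFP ratio change of at least 30% with cell ATP level not reduced by more than half and red fluorescence within 50% of control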; note: strong numbers were not always called active
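Assay system: HT1080 RFP-PRO-GFP cells | Dosing: 20 µM single dose, 1% DMSO | Incubation: Cells overnight before dosing, compound overnight, 37 °C, 5% CO2 | Evaluation: GFP/RFP fluorescence ratio | Control set: DMSO-only wells and HT1080 RFP-L50D-GFP cell wells as references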
eIF4H inh retest: also measured in eIF4H inh; calls as there; inhibition, %; compound at 20 µM; confirmation average;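 mean of two retest wells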
PABP FP inh retest: further read-out of PABP FP inh, marked with its call; inhibition, %; compound at 20 µM; confirmation repeats;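 mean of two retest wells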
MT1-MMP act inh RFP: recorded beside MT1-MMP act inh, whose call it bears; RFP signal change, %; measured here: RFP expression control read;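 0 = vehicle wells; hits needed this value within 50% of zero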
Numbers without * were called inactive.

Start of the listing, in advance:
`O=C(CSc1n[nH]c(-c2ccncc2)n1)NC1CCS(=O)(=O)C1` (stereo not given) gave Rce1 inh inactive, Env fusion inh 25, eIF4H inh 0, PABP FP inh 0, Yeast UUG start -7, CSC inhib 12, MT1-MMP act inh 3 and MT1-MMP act inh RFP 5.
COc1cc2ccccc2cc1C(=O)Nc1ccc(Cc2ccncc2)cc1 was read as Rce1 inh inactive, Env fusion inh 20, eIF4H inh 5, PABP FP inh -1, Yeast UUG start 0, CSC inhib 97*, MT1-MMP act inh -6 and MT1-MMP act inh RFP -16.

This part in full, from the start:
`O=C(CSc1n[nH]c(-c2ccncc2)n1)NC1CCS(=O)(=O)C1` (stereo not given) gave Rce1 inh inactive, Env fusion inh 25, eIF4H inh 0, PABP FP inh 0, Yeast UUG start -7, CSC inhib 12, MT1-MMP act inh 3 and MT1-MMP act inh RFP 5.
COc1cc2ccccc2cc1C(=O)Nc1ccc(Cc2ccncc2)cc1 was read as Rce1 inh inactive, Env fusion inh 20, eIF4H inh 5, PABP FP inh -1, Yeast UUG start 0, CSC inhib 97*, MT1-MMP act inh -6 and MT1-MMP act inh RFP -16.
For Cc1ccc(O)c(NC(=S)NC(=O)c2ccccc2Cl)c1 the results were Rce1 inh inactive, Env fusion inh -11, eIF4H inh 2, PABP FP inh 2, CSC inhib -4, MT1-MMP act inh 0 and MT1-MMP act inh RFP 2.
Screening COc1ccccc1OC(=O)c1cc(Cl)nc2ccccc12 returned Rce1 inh inactive, eIF4H inh 2, PABP FP inh -1, CSC inhib -8, MT1-MMP act inh -5 and MT1-MMP act inh RFP -3.
`Cc1cc(OC(=O)c2ccc(S(=O)(=O)N3CCOCC3)cc2)c([N+](=O)[O-])c(=O)[nH]1` gave Env fusion inh -6, eIF4H inh 2, PABP FP inh -6, MT1-MMP act inh -3 and MT1-MMP act inh RFP 6.
CCO/C=C1/C(=O)N(c2ccc(OC)cc2)C(=O)c2ccccc21 was read as Rce1 inh inactive, Env fusion inh 10, eIF4H inh -1, PABP FP inh 2, Yeast UUG start -7, CSC inhib -11, MT1-MMP act inh -1 and MT1-MMP act inh RFP 2.
`C/C(Cn1cnc([N+](=O)[O-])n1)=N\NC(=O)c1cccc(F)c1` gave Rce1 inh inactive, Env fusion inh -64, eIF4H inh -8, PABP FP inh -1, Yeast UUG start -8, CSC inhib 4, MT1-MMP act inh 3 and MT1-MMP act inh RFP 0.
`NS(=O)(=O)c1cccc(C(=O)OCC(=O)NC2CCCc3ccccc32)c1` (stereo not given) gave Env fusion inh 2, Yeast UUG start -5, CSC inhib 14, MT1-MMP act inh 0 and MT1-MMP act inh RFP 9.
Cc1ccc(C(=O)Nc2ccc3c(c2)CCC3)cc1S(=O)(=O)N1CCOCC1 was read as Rce1 inh inactive, Env fusion inh -15, eIF4H inh 15, PABP FP inh -3, Yeast UUG start -11, CSC inhib -10, MT1-MMP act inh -2 and MT1-MMP act inh RFP -12.
`COc1cccc([C@H](O)Cn2cc(-c3ccc(CON=C(C)C)cc3)nn2)c1` gave Rce1 inh inactive, eIF4H inh -2, PABP FP inh 14 and CSC inhib 1.
For CCC(C)[C@H](NC(=O)N1CC(=O)Nc2ccccc21)C(=O)Nc1nccs1 (stereo not given in full) the results were Rce1 inh inactive, Env fusion inh -5, eIF4H inh 7, PABP FP inh 4, Yeast UUG start -4, CSC inhib -8, MT1-MMP act inh -6 and MT1-MMP act inh RFP 2.
For CCCCCc1ccc(-c2cn(CN3C(=O)c4ccccc4C3=O)nn2)cc1 the results were Rce1 inh inactive, Env fusion inh -11, eIF4H inh 1, PABP FP inh -2, Yeast UUG start -3, CSC inhib 5, MT1-MMP act inh 0 and MT1-MMP act inh RFP -1.
For CC(C)CC(c1nnnn1CC1CCCO1)N1CCN(c2nc3ccccc3s2)CC1 (stereo not given) the results were Rce1 inh inactive, eIF4H inh 2, PABP FP inh -6, Yeast UUG start -7, MT1-MMP act inh -6 and MT1-MMP act inh RFP -5.
For Cc1oc2c(C)c3oc(=O)c(CCC(=O)NCCCN4CCOCC4)c(C)c3cc2c1C the results were Rce1 inh inactive, eIF4H inh -3, PABP FP inh -6, Yeast UUG start -3, CSC inhib -4, MT1-MMP act inh 4 and MT1-MMP act inh RFP -2.
Screening CCCc1nnc(NC(=O)CCC(=O)N2CCCCC2)s1 returned Rce1 inh inactive, Env fusion inh -3, eIF4H inh -11, PABP FP inh 3, Yeast UUG start -28, CSC inhib 5, MT1-MMP act inh 2 and MT1-MMP act inh RFP 5.
Screening COc1ccccc1-n1c(=S)[nH]c2c(sc(=S)n2-c2ccccc2C)c1=O returned Rce1 inh inactive, Env fusion inh 17, eIF4H inh 8, PABP FP inh 13, CSC inhib -22, MT1-MMP act inh -5 and MT1-MMP act inh RFP -11.
`CCOC(=O)c1[nH]c2cc(OC)c(OC)cc2c1NC(=O)CN(C)C1CCCCC1` gave Rce1 inh inactive, Env fusion inh -7, eIF4H inh -4, PABP FP inh -9, Yeast UUG start -13, CSC inhib -9, MT1-MMP act inh 2 and MT1-MMP act inh RFP -1.
`CN=C(c1ccc([N+](=O)[O-])cc1)N1CCCCC1` gave Rce1 inh inactive, Env fusion inh 35, eIF4H inh 44, PABP FP inh 1, Yeast UUG start -11, CSC inhib 16, MT1-MMP act inh -3 and MT1-MMP act inh RFP 3.
`CSc1ccc(CN2CCC(C)(Oc3ccc(CC#N)cc3)C2)cc1` (stereo not given) gave Env fusion inh 5, Yeast UUG start -4, MT1-MMP act inh 0 and MT1-MMP act inh RFP -1.
`COc1ccc(CN2CCCC(C(=O)c3ccc4c(c3)OCO4)C2)c(F)c1` (stereo not given) gave Rce1 inh inactive, Env fusion inh -8, eIF4H inh -12, PABP FP inh 2, Yeast UUG start -1, CSC inhib 7, MT1-MMP act inh -1 and MT1-MMP act inh RFP -1.
`COc1ccc(C=O)c(OC)c1` gave Rce1 inh inactive, Env fusion inh 13, eIF4H inh -11, PABP FP inh -3, Yeast UUG start 5, CSC inhib -2, MT1-MMP act inh 4 and MT1-MMP act inh RFP 3.
For COC(=O)C1C(c2ccccc2)C(C(=O)O)C1c1ccccc1 (stereo not given) the results were Rce1 inh inactive, Env fusion inh -3, eIF4H inh -5, PABP FP inh -3, Yeast UUG start 7, CSC inhib -15, MT1-MMP act inh -4 and MT1-MMP act inh RFP 2.
Screening Cc1nnc(SCC(=O)Nc2cccnc2Cl)s1 returned Rce1 inh inactive, Env fusion inh 3, CSC inhib -9, MT1-MMP act inh 0 and MT1-MMP act inh RFP 5.
`Cc1cc(C(=O)N2CCCC(N3CCN(c4cccc(C(F)(F)F)c4)CC3)C2)no1` (stereo not given) gave Rce1 inh inactive, Env fusion inh 12, eIF4H inh -1, PABP FP inh 8, Yeast UUG start -1, CSC inhib -1, MT1-MMP act inh -5 and MT1-MMP act inh RFP -3.
For Cn1nc(C(=O)Nc2cc(Cl)ccc2N2CCCC2)c2ccccc2c1=O the results were Env fusion inh 5, Yeast UUG start -9, MT1-MMP act inh 1 and MT1-MMP act inh RFP 0.
Cc1nc(SCc2ccc(Cl)c(Cl)c2)ncc1C(=O)O was read as Rce1 inh inactive, Env fusion inh 5, eIF4H inh -2, PABP FP inh -10, CSC inhib 27, MT1-MMP act inh 1 and MT1-MMP act inh RFP -2.
`Cc1nn2c(=O)cc(CSCC(=O)Nc3ccccc3Cl)nc2s1` gave Rce1 inh inactive, Env fusion inh -16, eIF4H inh -4, PABP FP inh 6, Yeast UUG start -9, MT1-MMP act inh 1 and MT1-MMP act inh RFP 4.
O=C(NCCc1ccccn1)c1ccc(COc2ccccc2)o1 was read as Rce1 inh inactive, Env fusion inh -28, eIF4H inh 10, PABP FP inh 8, Yeast UUG start -10, CSC inhib 2, MT1-MMP act inh 6 and MT1-MMP act inh RFP 4.
Screening COc1cc(-c2ccc(Nc3ccccc3C(=O)O)c(OC)c2)ccc1Nc1ccccc1C(=O)O returned Env fusion inh -10, eIF4H inh 91*, PABP FP inh 94*, Yeast UUG start 62, MT1-MMP act inh 5 and MT1-MMP act inh RFP 5.
Screening CCOc1cc(N2CCOCC2)c(OCC)cc1NC(=O)c1ccc(C)s1 returned Rce1 inh inactive, Env fusion inh 7, eIF4H inh 7, PABP FP inh -2, CSC inhib -12, MT1-MMP act inh 5 and MT1-MMP act inh RFP 0.
For CCn1c(=O)n(CC)c2cc(N)ccc21 the results were Rce1 inh inactive, Env fusion inh -2, eIF4H inh 9, PABP FP inh 16, CSC inhib -10, MT1-MMP act inh -6 and MT1-MMP act inh RFP 3.
Screening O=[N+]([O-])c1ccc(S(=O)(=O)N/N=C/c2ccco2)cc1 returned Rce1 inh inactive, Env fusion inh -29, eIF4H inh -5, PABP FP inh 85, CSC inhib 2, MT1-MMP act inh 5, eIF4H inh retest -5, PABP FP inh retest 2 and MT1-MMP act inh RFP 10.
For CCCC(=O)Nc1c2c(nn1-c1cccc(C)c1C)CS(=O)(=O)C2 the results were Rce1 inh inactive, Env fusion inh -14, eIF4H inh -3, PABP FP inh 2, Yeast UUG start -13, CSC inhib -24, MT1-MMP act inh -2 and MT1-MMP act inh RFP 3.
For CN(C)C(=O)CC12CC3CC(C1)CC(CC(=O)N(C)C)(C3)C2 the results were Rce1 inh inactive, Env fusion inh 5, eIF4H inh 0, PABP FP inh -4, CSC inhib 7, MT1-MMP act inh 1 and MT1-MMP act inh RFP 3.
`CCCCn1c(N)c(N(CC(C)C)C(=O)c2ccc(S(=O)(=O)N(CC)c3ccccc3)cc2)c(=O)[nH]c1=O` gave Rce1 inh inactive, Env fusion inh 102*, Yeast UUG start -15, CSC inhib 8, MT1-MMP act inh -4 and MT1-MMP act inh RFP -5.
COCCn1nnnc1C(c1ccc(OC)cc1)N1CCN(c2ccccc2F)CC1 (stereo not given) was read as Rce1 inh inactive, eIF4H inh 0, PABP FP inh 3, Yeast UUG start -5, MT1-MMP act inh 0 and MT1-MMP act inh RFP 1.
Screening Cc1c(OC(C)C(=O)NC2CC(C)(C)NC(C)(C)C2)ccc2c3c(c(=O)oc12)CCC3 (stereo not given) returned Rce1 inh inactive, Env fusion inh -10, eIF4H inh 23, PABP FP inh 21, Yeast UUG start 1, CSC inhib -13, MT1-MMP act inh 1 and MT1-MMP act inh RFP 2.
CCc1nc2ccc(C(=O)N(C)CCCN(C)C)cn2c1N(C)CCCc1ccccc1 was read as Env fusion inh -2, Yeast UUG start -6, MT1-MMP act inh 6 and MT1-MMP act inh RFP 6.
Screening Cc1cccc(NC(=S)N(C)C)c1C returned Rce1 inh inactive, Env fusion inh 6, eIF4H inh -11, PABP FP inh 0, CSC inhib 2, MT1-MMP act inh -1 and MT1-MMP act inh RFP -1.
Cc1ccc2ncnc(NCCCCCC(=O)O)c2c1 was read as Rce1 inh inactive, Env fusion inh 9, eIF4H inh -9, PABP FP inh -7, Yeast UUG start 1, CSC inhib -11, MT1-MMP act inh -5 and MT1-MMP act inh RFP 0.
Screening COC(=O)c1ccc(C23CC4(C2)[C@H](CN(Cc2ccc(-c5ccccc5)cc2)[C@@H]4c2ccccc2)C3c2ccc(C(F)(F)F)cc2)cc1 (stereo not given in full) returned Rce1 inh inactive, Env fusion inh 6, eIF4H inh -20, PABP FP inh -22 and CSC inhib -6.

Some of the compounds tested; count on the stated rates, not on these rows.
